Screens (PubChem BioAssay)
INS promoter inh: TRM-6 insulin promoter activity inhibition | AID 1273 | TRM-6 cells (human fetal islet line), insulin promoter-eGFP reporter, imaging; reporter expression induced with tamoxifen | 130,000 tested, 0.9% active | inhibition, % at 2 µM;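 active = inhibition above the mean plus 3 SD, with well images judged a real hit on visual review, cut at about 60% in these data, passing the limit was not always enough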
RGS16-Gao HTS: regulators of human RGS16-Galphao interaction; bead-based flow cytometry RGS16-Galphao binding, fluorescence; actives lie on both sides; AID 1441; binding response (% of control), % at 10 µM; 220,000 tested, 0.38% active; O15492+P09471;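 active = below 25% or above 175%, edge rows of some plates excepted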;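 note: Galphao activated by GDP with aluminum fluoride before binding; 100% = wells without compound and 0% = beads without RGS; some results beyond the cut were filed as inactive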
PKD1 kinase inh: blocks activity of human protein kinase D1; Q15139; PKD1 kinase fluorescence polarization assay; inhibition, %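 (about 10 µM by stock and volumes)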; 200,000 tested, 0.056% active; AID 797;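 active = inhibition of 50% or more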;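 note: controls were vehicle for no effect and a reference inhibitor for full effect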
Target sequence (Q15139 whole entry, looked up): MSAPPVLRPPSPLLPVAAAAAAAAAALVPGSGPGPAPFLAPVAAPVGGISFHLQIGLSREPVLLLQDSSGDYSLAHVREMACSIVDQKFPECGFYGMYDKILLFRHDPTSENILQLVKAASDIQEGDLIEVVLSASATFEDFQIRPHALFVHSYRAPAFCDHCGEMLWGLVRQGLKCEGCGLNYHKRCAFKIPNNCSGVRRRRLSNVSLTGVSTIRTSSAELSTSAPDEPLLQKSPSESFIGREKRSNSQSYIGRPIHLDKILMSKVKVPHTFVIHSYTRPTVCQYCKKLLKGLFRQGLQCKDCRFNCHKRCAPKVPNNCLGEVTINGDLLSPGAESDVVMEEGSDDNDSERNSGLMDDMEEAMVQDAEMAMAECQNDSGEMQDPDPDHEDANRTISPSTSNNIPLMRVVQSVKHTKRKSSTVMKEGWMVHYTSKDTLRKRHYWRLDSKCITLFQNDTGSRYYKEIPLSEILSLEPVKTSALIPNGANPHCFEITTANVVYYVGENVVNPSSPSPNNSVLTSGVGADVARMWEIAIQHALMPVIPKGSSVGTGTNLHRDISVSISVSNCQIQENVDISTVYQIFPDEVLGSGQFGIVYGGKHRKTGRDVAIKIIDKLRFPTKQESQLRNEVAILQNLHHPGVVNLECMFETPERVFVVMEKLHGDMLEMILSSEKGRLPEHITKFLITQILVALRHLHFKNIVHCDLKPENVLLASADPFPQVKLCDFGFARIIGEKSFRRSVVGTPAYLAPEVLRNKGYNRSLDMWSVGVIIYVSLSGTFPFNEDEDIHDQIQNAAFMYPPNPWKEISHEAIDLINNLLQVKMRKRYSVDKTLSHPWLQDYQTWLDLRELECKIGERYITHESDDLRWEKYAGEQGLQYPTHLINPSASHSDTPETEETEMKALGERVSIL
HSV augment: HSV replication enhancement | maximum fold increase | 220,000 tested, 0.005% active | AID 1956 | HSV replication augmentation in cells, fold increase;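 active = peak rise of 1.5-fold or more in the series; tested in PC3 cells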;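 note: first round at 10 µM; read as green reporter fluorescence; hits show the peak of a series up to 25 µM; 1 = signal of infected wells without compound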
GALR2 ag: GALR2 (human) receptor agonism | O43603 | GALR2-expressing cells, agonist activation read-out | activation, %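 (tested at 5 µM)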 | 140,000 tested, 0.48% active;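 active = above mean plus 3 SD of all compounds, about 5% in these data, not always enough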;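 note: 0% = vehicle buffer wells and 100% = reference agonist at full effect; tested in CHO reporter cells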
INS promoter inh cell count: further read-out of INS promoter inh, marked with its call; normalized cell count, %; measured here: cell count, toxicity; reference of the scale not given here;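 cells exposed to compound for 48 h; stained nuclei by imaging scaled within each plate; lower means fewer cells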
HSV augment primary fold: further read-out of HSV augment, marked with its call; fold increase; compound at 10 µM; measured here: primary screen fold increase 10 uM; tested in PC3 cells;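 GFP signal in the first replicate; 1 = infected wells without compound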
* = called active by the depositor; i = inactive; / = not tested or not shown; [ ] = another dose, or the depositor's remark.

SMILES	INS promoter inh	INS promoter inh cell count	RGS16-Gao HTS	PKD1 kinase inh	HSV augment	HSV augment primary fold	GALR2 ag
COCCNC(=O)c1noc2c1CCc1cc(OC)ccc1-2	/	/	105	-2	i	0.87	-1.6
CC1CC(C)CN(S(=O)(=O)c2ccccc2[N+](=O)[O-])C1 (stereo unspecified)	16	92	92	5	i	0.95	-1.7
COc1cc(-c2nc(-c3ccccc3)c(-c3cccs3)[nH]2)cc(OC)c1OC	/	/	89	-5	i	0.79	3.2
CNC(=O)C1=C(C)NC(=S)NC1c1cc2c(cc1OC)CCCC2 (stereo unspecified)	9	109	91	-7	i	0.92	-1.2
O=C(c1ccc(Cl)c(S(=O)(=O)N2CCCC2)c1)N1CCN(c2ccccn2)CC1	-14	94	101	-8	i	0.96	-0.7
O=C(Nc1cccc(-c2nnc(-c3ccco3)o2)c1)c1ccccc1	/	/	105	7	i	0.96	/
COc1ccc(NC(=O)CCCCCN2C(=O)CCC2=O)cc1Cl	36	63	100	-6	i	1.1	0.7
CC(=O)c1cccc(NC(=S)NC(=O)c2ccc(C)cc2Cl)c1	/	/	102	-1	i	1	/
CCCCOC(=O)c1ccc(NC(=O)CSc2nnnn2C)cc1	-7	109	97	7	i	1	/
COc1ccc(NC(=O)c2ccc(OC(=S)N(C)c3ccc(OC)cc3)cc2)cc1	/	/	108	-9	i	0.88	-2.4
C/C=C/c1ccc(OCCOc2cccc3cccnc23)c(OC)c1	3	86	96	5	i	1	-0.3
CN(C)S(=O)(=O)c1ccc(Cl)c(NC(=O)COC(=O)C2CCCO2)c1 (stereo unspecified)	/	/	99	/	i	1	/
CCCCN(C)S(=O)(=O)c1ccc(C(=O)Nc2nnc(CSC)o2)cc1	9	54	106	1	i	1.1	-0.2
Cc1cc(C)c(C)c(OC(=O)c2sc(Cl)nc2C)c1	50	109	105	8	i	0.52	-0.3
CS(=O)(=O)n1nc(-c2ccccc2)nc1NCc1ccco1	27	112	107	1	i	0.97	-3.3
O=C(Nc1ccc(F)c(F)c1)c1cccnc1	-3	115	111	-2	i	0.87	-1.5
CC(C)Cn1cc(C(=O)N2CCN(c3ccccn3)CC2)c2c3ccccc3n(C)c2c1=O	/	/	99	1	i	0.8	0.0
CC(O)C(NS(=O)(=O)c1ccc(Cl)cc1)C(=O)OCC(=O)c1c[nH]c2ccccc12 (stereo unspecified)	/	/	98	-1	i	1	/
Cc1cc(NCCCO)n2c(nc3ccccc32)c1C#N	-36	112	94	0	i	1	0.0
COc1cc(C(=O)N(C)c2nnc(-c3cccnc3)s2)cc(OC)c1OC	-56	104	100	-7	i	0.7	0.3
O=C(O)CCN1c2ccccc2Sc2ccccc21	/	/	107	/	i	1.1	/
O=C(O)CC1(CC(=O)Nc2ccccc2N2CCOCC2)CCCC1	/	/	101	/	i	1.1	/
CCCC/C(=N\NC(=O)c1ccc(Br)o1)c1ccccc1	-64	138	105	2	i	0.93	0.6
CSc1nc(N)n2nc(-c3ccccc3)cc2n1	/	/	105	/	i	1.1	/
CCc1c(C(=O)NC2CCCCC2)[nH]c(C)c1C(C)=O	/	/	102	-10	i	0.84	-2.3
COc1cnc(-c2ccccc2)nc1Oc1cccc(C)c1	/	/	102	-1	i	0.99	1.1
Cc1ccc(NC(=O)Cn2cc(C(F)(F)F)cc(Cl)c2=O)cc1Cl	/	/	100	2	i	1	/
CCN(CC)C(=O)c1sc2nc(-c3ccccc3)ccc2c1N	64	106	106	5	i	0.96	/
Cc1c(NC(=O)C2CCCN2S(=O)(=O)c2ccc(Cl)cc2)c(=O)n(-c2ccccc2)n1C (stereo unspecified)	21	59	102	-9	i	1.1	-1.4
O=Cc1cc(N=Nc2ccccc2Cl)ccc1O	/	/	99	-6	i	1.2	/

Gathered by group: the compounds so far containing fluorine
SMILES	INS promoter inh	INS promoter inh cell count	RGS16-Gao HTS	PKD1 kinase inh	HSV augment	HSV augment primary fold	GALR2 ag
O=C(Nc1ccc(F)c(F)c1)c1cccnc1	-3	115	111	-2	i	0.87	-1.5
Cc1ccc(NC(=O)Cn2cc(C(F)(F)F)cc(Cl)c2=O)cc1Cl	/	/	100	2	i	1	/

Going on with the list:
SMILES	INS promoter inh	INS promoter inh cell count	RGS16-Gao HTS	PKD1 kinase inh	HSV augment	HSV augment primary fold	GALR2 ag
COC(=O)c1cccc(COC(=O)CNC(=O)c2ccco2)c1	/	/	99	-11	i	0.79	-1.3
CNC(=O)Nc1cccc(-c2ccnc(C)n2)c1	/	/	98	/	i	0.97	/
CN(C)/C=N/c1c(C(=O)NCc2ccccc2)nnn1Cc1ccccc1	/	/	105	-2	i	0.88	-0.7
Cc1cc(C(=O)Nc2sc(C)c(-c3ccc(F)cc3)c2C(N)=O)no1	/	/	99	-10	i	0.98	-4.0
CCC(C)NS(=O)(=O)c1ccc(NC(=O)c2cccs2)cc1 (stereo unspecified)	/	/	108	-5	i	0.76	/
Nc1cccc2c1nnn2C1OC(CO)C(O)C(O)C1O (stereo unspecified)	/	/	100	3	/	/	/
Cc1c(C(=O)N/N=C/c2cccs2)nc2ccccn12	/	/	96	7	i	1	-0.2
O=C(Nc1ccc2oc(Cc3ccc(Cl)cc3)nc2c1)c1cccnc1	52	62	103	-8	i	0.97	-1.4
Cc1ccc(C)c(/C=C(\C(=O)O)c2ccc(S(=O)(=O)N3CCCCC3)s2)c1	/	/	96	-7	i	0.98	/
CCN(CC)S(=O)(=O)c1ccc(C)c(NC(=S)Nc2cccc(S(=O)(=O)N3CCCCCC3)c2)c1	-68	137	101	0	i	0.99	-0.6
C/C=C/c1ccc(OC(C)=O)c(OC)c1	-19	139	105	-1	i	0.93	-0.5
Cc1ccc2c(c1)-c1c(cnn1CC(=O)Nc1ccccc1N1CCN(C)CC1)CO2	/	/	97	-8	i	0.83	-0.6
COc1ccc(O)c(/C=N/NC(=O)c2ccc(OCc3cccc(Br)c3)cc2)c1	/	/	96	11	i	0.66	-1.2
COc1ccc2[nH]c(C)c(CCN3C(=O)C4C5C=CC(C5)C4C3=O)c2c1 (stereo unspecified)	/	/	101	-3	/	/	0.0
C/C(=N\NC(=O)c1nc2ccccn2c1C)c1ccc2c(c1)OCO2	16	120	100	0	i	0.91	-0.3
O=C(CCCn1c(SCC(=O)c2ccc(F)cc2)nc2ccccc2c1=O)NCc1ccccc1	-44	144	103	-5	i	0.62	-1.5
CN(C1CCCCC1)S(=O)(=O)c1ccc2[nH]c(=O)oc2c1	/	/	101	/	i	1.2	/
C=CCN(CC=C)S(=O)(=O)c1ccc(C(=O)Nc2nnc(CSC)o2)cc1	-6	58	96	-1	i	1.1	/
COc1cccc(C(=O)CSc2nnnn2C)c1	0	75	84	-4	i	1	-3.9
CCCc1cc(-c2n[nH]c(=S)n2-c2cccc(C)c2)cs1	12	89	98	-9	i	1	/
CCOc1ccc(CN(Cc2ccco2)S(=O)(=O)c2ccc(-n3cnnn3)c(OC)c2)cc1	-9	76	91	3	i	0.9	0.1
Cc1ccc(-c2nc3[nH]c(=O)cc(NC(=O)c4cccs4)n3n2)cc1	/	/	100	/	i	0.85	/
Cc1noc(C)c1CN1C(=O)NC(Cc2ccccc2)(Cc2ccccc2)C1=O	/	/	106	-2	i	1.1	-1.8
COc1cc2c(cc1NC(=O)CSc1nnc(Cc3cccs3)n1C)oc1ccccc12	12	168	314*[activator]	-11	i	0.96	-0.8
COC(=O)C(OC(=O)c1ccc(OC)cc1)C(=O)OC	31	125	133	-8	i	0.86	-2.1
COc1cccc(-c2nn(C)c3sc(C(=O)Nc4ccc5c(c4)OCCO5)cc23)c1	/	/	103	-9	i	0.91	-1.0
COc1ccc(NS(=O)(=O)c2cc(NC(=O)CCSc3ccccc3)ccc2OC)cc1	-50	68	99	-2	i	0.98	-1.1
O=C(/C=C/c1ccco1)NC(=S)Nc1ccccc1N1CCOCC1	-26	140	97	-13	i	0.66	-2.3
CN(C)C(C)(C)C#CC(O)(c1ccccc1)c1ccccc1	/	/	112	1	i	0.94	/
CCOC(=O)N1CCN(C(c2cccc(OC)c2)c2sc3nc(C)nn3c2O)CC1 (stereo unspecified)	/	/	101	3	i	0.98	0.3
Cc1cc([N+](=O)[O-])nn1CCCC(=O)Nc1cc(Cl)ccc1Cl	/	/	100	-8	i	0.95	/
CCN1CCN(Cc2ccc(OCc3ccccc3)c(OC)c2)CC1	43	35	97	-9	i	1	-1.7
Cc1nn(C)c(C(=O)Nc2cccc(CN3CCOCC3)c2)c1Br	-22	124	106	-15	i	1	-1.4
Clc1cc2nc[nH]c2cc1Cl	/	/	100	/	i	1	/
COc1ccc(/C=C/c2nc(C)c(-c3ccccc3)c(=O)[nH]2)cc1OC	/	/	124	-7	i	1.1	-0.5
CN1CCN(c2ccc(NC(=O)c3ccc4c(c3)[nH]c(=O)n4Cc3ccc(F)cc3)cc2)CC1	/	/	114	-3	i	0.53	-0.1
CC(=O)OC[C@H]1O[C@H](C/C=N/O[C@@H](C)c2cn([C@H](CO)Cc3ccccc3)nn2)C=C[C@@H]1OC(C)=O	-5	112	104	-3	/	/	-1.7
CN(C)CCCNC(=S)Nc1ccc(Oc2ccccc2)cc1	-24	82	96	1	i	0.87	/
N#Cc1ncc(C(F)(F)F)cc1Oc1cccnc1	55	122	108	-5	i	1	/
O=C(CN1c2cccc3cccc(c23)S1(=O)=O)Nc1ccccc1	/	/	97	-3	i	0.8	/
CC(C)OP(=O)(OC(C)C)C1(O)C(=O)Nc2ccccc21 (stereo unspecified)	-13	99	96	-12	i	0.95	-0.9
Cc1c(N/C=C/C(=O)c2ccc(Cl)cc2)c(=O)n(-c2ccccc2)n1C	47	35	7	-2	i	0.75	-1.6
CCCn1c(SC2C(=O)CC(C)(C)CC2=O)nc2c1c(=O)n(C)c(=O)n2C	-12	109	105	-5	i	1	-1.9
Cc1cc(C)n(-c2ccc3nnc(C)n3n2)n1	/	/	101	/	i	0.98	/
CS(=O)(=O)N(Cc1ccccc1)c1ccc(C(=O)NCCSCc2ccco2)cc1	-6	97	103	-12	i	0.88	-4.0

Some of these compounds in order of the GALR2 ag value, smallest number first:
Compound	RGS16-Gao HTS	PKD1 kinase inh	HSV augment	HSV augment primary fold	GALR2 ag
CCCn1c(SC2C(=O)CC(C)(C)CC2=O)nc2c1c(=O)n(C)c(=O)n2C	105	-5	i	1	-1.9
CC(=O)OC[C@H]1O[C@H](C/C=N/O[C@@H](C)c2cn([C@H](CO)Cc3ccccc3)nn2)C=C[C@@H]1OC(C)=O	104	-3	/	/	-1.7
CC(C)OP(=O)(OC(C)C)C1(O)C(=O)Nc2ccccc21 (stereo unspecified)	96	-12	i	0.95	-0.9

Remaining list, next part.
SMILES	INS promoter inh	INS promoter inh cell count	RGS16-Gao HTS	PKD1 kinase inh	HSV augment	HSV augment primary fold	GALR2 ag
CCOc1ccc(OCC)c(NC(=O)CCCN2C(=O)c3cccnc3C2=O)c1	-38	57	94	-2	i	1.1	-0.9
Cc1ccccc1NC(=O)Cn1c(CCC(=O)O)ccc1-c1cccs1	/	/	112	8	i	1	/
O=C(Nc1ccc2c(c1)OCO2)c1noc2c1CCCCC2	7	166	100	3	i	0.89	-2.3
O=C(Nc1ccccc1)N1CCCC(c2nc(-c3cccs3)no2)C1 (stereo unspecified)	/	/	100	-9	i	1.1	-0.6
CCOC(=O)C(C)n1cnc2sc3c(c2c1=O)CCC3 (stereo unspecified)	8	214	76	-7	i	0.95	-0.2
Cc1ccc(C(=O)N/N=C/c2ccc(S(=O)(=O)O)o2)c(Cl)c1	-18	77	97	-2	i	0.93	-1.2
Cc1ccc(NC(=O)c2ccc(OC(=O)c3cc4ccccc4o3)cc2)cc1	-30	100	23	2	i	0.96	-0.5
CC(C)CC(=O)NCCc1ccncc1	-66	61	98	1	i	0.86	-2.3
Cc1ccc(Nc2nnc(SCC(=O)NC3CCCc4ccccc43)s2)cc1 (stereo unspecified)	/	/	102	10	i	1.1	-2.6
O=C(C1=C[C@@H](c2csc3ccccc23)C[C@@H](OCc2ccc(CO)cc2)O1)N1CCOCC1	/	/	98	-3	i	0.81	/
COc1ccc(/C=N/NC(=O)c2cccc(OC(F)(F)C(F)F)c2)c(OC)c1OC	23	104	93	1	i	0.96	-0.3
O=C(c1cccc(N2CCCC2=O)c1)N1CCOCC1	14	136	91	-5	i	0.93	-0.8
COc1ccc(-n2cc(CNC3CCC(O)CC3)c(-c3cccc(F)c3)n2)cc1 (stereo unspecified)	/	/	111	-2	i	0.81	/
COc1cc(NCc2ccccc2O)c2ncccc2c1	/	/	101	/	i	1.1	/
CC1=C(C(=O)Nc2ccccc2C(F)(F)F)C(c2sccc2C)NC(=S)N1 (stereo unspecified)	/	/	101	-1	i	0.92	/
C=C(C)CN(CC)C(=O)CCc1nnc(CCCc2ccccc2)o1	/	/	104	-1	i	1.1	/

An unsorted share of the library; 1.1% or so of the library scored in one or more.
